NPR1 antag – antagonists of human natriuretic peptide receptor Npr1; P16066; AID 1347048; actives 1.6% (n = 76,000); HEK293 hNpr1 GloSensor cGMP, ANP-stimulated luminescence; Potency, µM (top dose mostly 46.3 µM), inactives show at the top dose activity change, negative = inhibition, actives largely listed as inhibitors; active = well fitted inhibition curve with a large enough effect; inconclusive = small, poorly fitted or top-dose-only effect; inactive = no such curve, though single readings can be large or run the other way;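 note: nearly all actives have a fitted effect of over 60% in size; nearly all hits also lower the signal before the agonist is added; a reference antagonist and vehicle were the controls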
Target sequence (P16066 whole entry, looked up): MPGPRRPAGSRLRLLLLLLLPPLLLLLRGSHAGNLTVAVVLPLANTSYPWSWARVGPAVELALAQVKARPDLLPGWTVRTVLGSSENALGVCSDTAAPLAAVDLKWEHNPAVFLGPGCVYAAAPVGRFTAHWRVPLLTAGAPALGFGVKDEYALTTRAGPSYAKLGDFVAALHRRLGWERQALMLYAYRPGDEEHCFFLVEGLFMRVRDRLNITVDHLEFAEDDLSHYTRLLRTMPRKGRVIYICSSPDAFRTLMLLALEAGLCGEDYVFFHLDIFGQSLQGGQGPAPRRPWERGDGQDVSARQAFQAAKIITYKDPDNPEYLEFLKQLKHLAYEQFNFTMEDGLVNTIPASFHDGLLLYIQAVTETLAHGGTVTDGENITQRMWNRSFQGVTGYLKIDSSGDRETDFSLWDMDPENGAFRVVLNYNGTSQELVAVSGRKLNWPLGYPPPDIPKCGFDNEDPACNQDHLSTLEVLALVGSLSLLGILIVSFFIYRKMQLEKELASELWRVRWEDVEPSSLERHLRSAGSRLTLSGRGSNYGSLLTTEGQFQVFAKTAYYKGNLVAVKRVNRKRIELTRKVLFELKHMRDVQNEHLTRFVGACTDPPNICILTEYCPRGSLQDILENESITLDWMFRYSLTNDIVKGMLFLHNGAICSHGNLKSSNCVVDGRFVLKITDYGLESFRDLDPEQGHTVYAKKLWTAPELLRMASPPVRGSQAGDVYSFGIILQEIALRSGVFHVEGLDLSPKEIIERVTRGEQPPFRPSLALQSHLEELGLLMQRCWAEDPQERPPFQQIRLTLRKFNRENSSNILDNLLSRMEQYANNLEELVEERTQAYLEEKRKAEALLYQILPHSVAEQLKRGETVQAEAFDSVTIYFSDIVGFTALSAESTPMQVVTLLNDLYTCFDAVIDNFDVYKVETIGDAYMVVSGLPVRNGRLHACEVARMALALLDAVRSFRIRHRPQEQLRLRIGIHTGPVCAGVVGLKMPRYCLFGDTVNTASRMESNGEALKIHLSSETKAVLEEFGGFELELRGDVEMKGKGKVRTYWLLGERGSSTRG
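HEK293 cells stably expressing human Npr1 and cGMP GloSensor pGS-40F, loaded 2 h with 2% GloSensor reagent, given compound 30 min at room temperature. Luminescence read before and 20 min after 0.1 nM hNppA.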
Numbers without * were called inactive; u = inconclusive; [ ] = dose if it differs, or a comment. % is set by controls: 0 for no effect and ±100 for the full control effect; potency is the fitted concentration of half-maximal effect. A portion of the library; count on the stated rates, not on these rows.

NPR1 antag | smiles
-16.1% | O=C(NCCc1ccncc1)C1CN(C(=O)Cc2ccccc2Cl)CC12CCOCC2 (stereo unspecified)
0.6% | COCCCN1CC2(CCN(C(=O)Cc3nonc3C)CC2)CC1=O
0.8% | Cn1ncc(N2CCC(CNC(=O)C3=Cc4ccccc4OC=C3)C2)cc1=O (stereo unspecified)
6.3%[70.6 µM] | O=c1c2nc(-c3cccc(C(F)(F)F)c3)ccc2ncn1Cc1ccccn1
-22.2% | CCc1noc(-c2nc(-c3ccc(OC)cc3)no2)n1
2.8% | CN1CCC([C@@H]2CN(S(=O)(=O)c3cccnc3)C[C@H]2C(N)=O)CC1
-3.3% | CCn1ncc(N2CCC(NC(=O)C(C)(C)CC)CC2)cc1=O
-1.8% | CC(O)c1cc2n(n1)CCN(C1CCN(C(=O)c3cnccn3)CC1)C2 (stereo unspecified)
1.9% | Cc1cc(CN2C[C@@H](CO)[C@H](NC(=O)C3CC3)C2)n(C)n1
-3.8% | O=C(O)c1ccc(-c2ccc(N3CCCCCC3)nc2)cc1
-12.6% | CCCc1nc(C(=O)N(C)Cc2cnn(-c3ccccc3C)c2)cs1
-14.3% | Cc1nc(-c2cnccn2)n(CC(=O)Nc2ccc3c(c2)OCCO3)c(=O)c1C
2.9% | O=C(NC1CCCN(c2cc(-c3ccc(F)cc3)[nH]n2)C1)c1cnccn1 (stereo unspecified)
9.3% | CCCS(=O)(=O)N1CCCC1c1nc2ccccc2s1 (stereo unspecified)
-13.8% | Cc1ccccc1C(=O)N1CCC(C(NC(=O)c2ccccc2Cl)C(=O)N2CCCCC2)CC1 (stereo unspecified)
-14.0% | CCS(=O)(=O)N1CCCCCCNC(=O)[C@@H]2C[C@@H](C(=O)NCCc3c[nH]c4ccccc34)C[C@@H]21
1.3% | CCS(=O)(=O)N1CCCC(n2c(C)cnc2C2CC2)C1 (stereo unspecified)
-1.6% | c1ccc(OCc2nc(C3CCCNC3)no2)cc1 (stereo unspecified)
2.6% | O=C(c1ccc(F)cc1)N1CCC(N2CC3CC(C2)[C@H]2CCCC(=O)N2C3)CC1 (stereo partly specified)
-1.3% | OC(c1cc2n(n1)CCN(Cc1cc(C3CC3)on1)C2)C1CC1 (stereo unspecified)
3.3% | O=C(c1cn(C2CNC2)nn1)N1CCCC1
0.7% | CC(C)NC(=O)NCC1Cn2cccc2CN1C (stereo unspecified)
u | COc1cccc(CCC(=O)N2CCC(Cc3nc(-c4ccccc4)no3)CC2)c1
-17.7%[70.6 µM] | COc1ccc(-c2cc(-c3cnn(C)c3)cn3cncc23)cc1
-11.5% | Clc1ccc(C2Cn3nnc(-c4nc(-c5ccccc5Cl)no4)c3CO2)cc1 (stereo unspecified)
0.4% | CNC(=O)[C@@H]1C[C@H](Oc2ccccc2)CN1C(=O)c1ocnc1C
-1.4%[70.6 µM] | COc1ccc(-c2cc(-c3ccc(N4CCOCC4)nc3)cn3cncc23)cn1
2.3% | COc1nccnc1NC1CCN(C(=O)c2cccc(C)c2)CC1
-19.1% | O=C1COc2ccc(-c3ccc4c(c3)OCO4)nc2CN1Cc1ccc(C(F)(F)F)cc1
-27.3% | COc1ccc(CCNC(=O)CC(c2ccccc2OC)c2c[nH]c3ccccc23)cc1OC (stereo unspecified)
-6.5% | Cc1ncccc1C(=O)N1CCC2(CC1)CC(N(Cc1ccc(F)cc1)C1CC1)CCO2 (stereo unspecified)
-0.4% | C[C@H]1CN(C(=O)CCCc2ccccc2)C[C@@H]1c1nc(-c2ccccc2)no1
4.9% | Cc1ccccc1NC(=O)N1CCC(CCNC(=O)Cc2ccsc2)CC1
3.7%[70.6 µM] | Fc1ccc(-c2nnc3ccc(NC4CCC4)nn23)nc1
-3.1% | O=C(NCCc1cccs1)c1ccc(CN2C(=O)NC3(CCOCC3)C2=O)cc1
0.5% | CC(C)(CC(=O)O)CC(=O)N1Cc2[nH]cnc2C[C@H]1c1nc(-c2ccc3ccccc3c2)no1
1.0% | COCCN(C)C[C@@H]1CN(C(=O)Cn2ncc3ccccc3c2=O)C[C@@H]1CO
5.2% | c1ccc2[nH]c(CCCn3ccnc3-c3cc4n(n3)CCCNC4)nc2c1
-27.2% | Cc1noc(C)c1C(=O)NC1CCCc2c1[nH]c1c(Cl)cccc21 (stereo unspecified)
-3.0% | CN(CC1CCOCC1)C(=O)c1ccc(Cl)s1
u | Cc1cn2nc(-c3nc(C4CCCN(C(=O)c5cccs5)C4)no3)cc2c(=O)[nH]1 (stereo unspecified)
-4.7% | C#Cc1cccc(C(=O)N2CCC(Cc3ccc(Cl)cc3)(C(=O)OCC)CC2)c1
-0.2% | O=C(Cn1cccc1-c1nc(-c2ccc(F)cc2)no1)NCc1ccc2c(c1)OCO2
2.9% | COC1C(=O)N(CC2CC2)C12CCN(S(=O)(=O)c1cccc3cccnc13)CC2 (stereo unspecified)
-5.8% | CCCn1ncc(NC(=O)c2cccc(CN3CCC[C@@H]3COC)c2)n1
-0.3%[70.6 µM] | O=C(NCC1(COc2cccnc2)C[C@@H](O)[C@@H](O)C1)C1CCCC1 (stereo partly specified)
-25.6%[70.6 µM] | O=C(c1ccccc1F)N1CCC12Cc1ccccc1NC2=O (stereo unspecified)
11.2µM* | Cc1nn2c(c1-c1ccccc1[S+](C)(=O)[O-])N(CCC(C)C)CCC2
-12.7% | CCOc1ccc(C(=O)NC2CCN(c3cn[nH]c(=O)c3)CC2)cc1
-2.6%[70.6 µM] | Cc1ccc2nc(CO[C@H]3CN(C(=O)C4CCOCC4)C[C@H]3F)[nH]c2c1

Other results follow:
NPR1 antag | smiles
4.9%[70.6 µM] | c1coc(-c2nc3ncccc3[nH]2)c1
0.6% | CCN1CC(c2ccccc2)CC2(CCN(C(=O)N3CCCC3)CC2)C1 (stereo unspecified)
-0.3%[70.6 µM] | O=[N+]([O-])c1cccc(-c2noc([C@@H]3C[C@@H](O)CN3Cc3cccnc3)n2)c1
3.5% | CCOc1ccccc1CN1CCn2c(nnc2[C@@H]2C[C@@H](O)CN2Cc2cccnc2)C1
-1.4% | CC(=O)NC1CCCc2c1[nH]c1ccc(F)cc21 (stereo unspecified)
-1.3% | O=C(NC1CCN(C(=O)N2CC3CC(C2)[C@H]2CCCC(=O)N2C3)CC1)c1ccncc1 (stereo partly specified)
-1.1%[70.6 µM] | N#Cc1cccc(CN[C@H]2[C@H](O)[C@H](O)C[C@@H]2c2cccnc2)c1
1.0%[70.6 µM] | COc1ccc(-c2n[nH]c3c2CC(=O)N(Cc2ccccn2)C3)cn1
2.8% | Cc1ccc(C#N)c(N2CC[C@@H](c3ccc4c(c3)OCO4)[C@H](O)C2)n1
-0.3% | Cc1cccc(N(C)C(=O)CN2C(=O)NC3(CCCCC3)C2=O)c1

Pulled by compound from the list above:
NPR1 antag | smiles
0.6% | CCN1CC(c2ccccc2)CC2(CCN(C(=O)N3CCCC3)CC2)C1 (stereo unspecified)
2.8% | Cc1ccc(C#N)c(N2CC[C@@H](c3ccc4c(c3)OCO4)[C@H](O)C2)n1

Following part.
NPR1 antag | smiles
0.0%[70.6 µM] | CN1CCC(NC(=O)C2(C)CCCc3cnc(NCc4ccccc4)nc32)CC1 (stereo unspecified)
u | COc1ccc(NC(=O)C2(C)CN(C)Cc3ccc(Nc4cccc(OC)c4)nc32)cc1 (stereo unspecified)
5.4% | COc1ccccc1N1CCN(CCC(=O)N(C)Cc2ccccc2)CC1=O
4.7% | C[C@@H]1CN(Cc2nc3c(n2Cc2ccccc2)C(=O)N(CCOc2ccccc2)CCN3)C[C@H](C)O1
-0.9% | Cc1cc(C)n(CC(=O)N2CCN(Cc3ccccc3)CC(O)C2)c(=O)n1 (stereo unspecified)
-2.7% | O=C(NC1CCC(O)CC1)C1CCCN(c2nc(-c3ccccc3)nc3c2CCC3)C1 (stereo unspecified)
-9.4% | CCN1CCN(c2ccc(C(=O)N3CCC(N4CCOCC4)CC3)cn2)CC1
u | CC(C)c1cccc(NC(=O)CN2C(=O)C(c3ccccc3)=NC2(C)C)c1
-1.4% | CN1[C@@H](CCC(=O)NCc2cccnc2)CNC(=O)[C@@H]2[C@H]1CCN2Cc1cccc(Cl)c1
-18.9% | COc1ccc(S(=O)(=O)N2CCCC(Cn3c(C4CC4)nc4cccnc43)C2)cc1 (stereo unspecified)

2 entries from above, as labelled records.
SMILES: COc1ccccc1N1CCN(CCC(=O)N(C)Cc2ccccc2)CC1=O
  NPR1 antag = 5.4%
SMILES: CN1[C@@H](CCC(=O)NCc2cccnc2)CNC(=O)[C@@H]2[C@H]1CCN2Cc1cccc(Cl)c1
  NPR1 antag = -1.4%

(further entries)
NPR1 antag | smiles
0.8%[70.6 µM] | COc1ccc(CN2CC[C@H](c3nnc(-c4ccccc4)o3)C2)cc1
0.1% | COc1ccc(C(=O)N[C@@H]2CCC[C@@H]2C(=O)NCCC(C)C)cn1
-18.3%[70.6 µM] | O=C1[C@@H]2C[C@@H](CN2Cc2cccc(Cl)c2)Oc2ccccc2N1CC1CC1
-4.1% | CCOc1ccccc1NC(=O)c1cc2c(N3CCSCC3)nc(C)cn2n1
-0.6% | O=C(C[C@H]1NC(=O)c2ccccc2NC1=O)NCCc1c[nH]c2ccc(F)cc12
4.7% | Cc1nc(CNC(=O)c2cc(S(N)(=O)=O)ccc2F)cc(=O)[nH]1
1.5% | Cc1ccsc1C(=O)Nc1ccc(-c2nnc3n2CCCC3)cc1
3.4% | Cc1ccc(C(=O)N2CCCC3(C2)Nc2cccnc2NC3=NC2CCCC2)cc1F (stereo unspecified)
-3.3% | CCC1(C(=O)NC2CCCCCC2)CCCCC(=O)N1 (stereo unspecified)
4.7% | Cn1nc(C2CCCN(C(=O)c3ccncc3)C2)n(Cc2ccccc2)c1=O (stereo unspecified)

Entries shown so far that contain a cyano group, in the order listed:
NPR1 antag | smiles
-1.1%[70.6 µM] | N#Cc1cccc(CN[C@H]2[C@H](O)[C@H](O)C[C@@H]2c2cccnc2)c1
2.8% | Cc1ccc(C#N)c(N2CC[C@@H](c3ccc4c(c3)OCO4)[C@H](O)C2)n1

Continued.
NPR1 antag | smiles
-0.4% | CCCOCCCNC(=O)c1c(C)noc1-c1ccccc1OC
-1.5% | O=C(c1cc(F)ccc1Cl)N1CCC(n2cnnc2C2CC2)CC1
-0.2% | O=C(NCc1ccc(F)cc1)C1CCN(C(=O)c2ncn3c2COC(c2ccccc2)C3)CC1 (stereo unspecified)
-5.8% | CCC(C(=O)Nc1ccc2c(c1)CN(Cc1ccccc1OC)C(=O)C(C)O2)c1ccccc1 (stereo unspecified)
5.7% | CCOc1ccccc1NC(=O)N1CCCC(c2nc(-c3cnccn3)no2)CCNC(=O)CC1 (stereo unspecified)
1.3%[70.6 µM] | COCCNC(=O)C[C@@H]1C[C@H]2O[C@H](CNCc3ccccc3C)[C@@H](O)[C@H]2O1
-4.8%[70.6 µM] | Cc1cc(OC2CN(Cc3ccc(C(F)(F)F)cc3)C2)ccc1F
-29.5% | OCCC1CN(Cc2nc3ccccc3s2)CCN1Cc1ccc(F)c(F)c1 (stereo unspecified)
2.6% | O=C(NC[C@H]1O[C@@H](CO)[C@@H](O)[C@H]1N1CCN(c2ccccc2)CC1)c1ccc(C(F)(F)F)cc1
-11.3% | Cc1ccc(S(=O)(=O)N2C[C@@H](F)C[C@H]2C(=O)N2CCOCC2)c(C)c1
-14.7%[70.6 µM] | CCCNC(=O)N[C@@H]1C[C@H](Cn2cc(-c3cccnc3)nn2)[C@@H](O)[C@H]1O
3.1% | CC1Oc2ccc(NC(=O)c3ccc(F)cc3F)cc2CN(CCc2ccccc2)C1=O (stereo unspecified)
-19.9% | CCCn1cc(-c2ccncc2)cc1C(=O)N1CCN(c2ccccc2F)CC1
-17.8% | C[C@H]1[C@@H]2[C@@H](O)C([C@H](C)C(=O)NCc3ccc(F)cc3)CC[C@@]2(C)CC[C@@H]1NC(=O)C1CCCCC1 (stereo partly specified)
-10.3%[70.6 µM] | COc1ccc(CNC2(Cc3cc(COc4ccccc4)on3)COC2)cc1
0.0% | COc1ccc(-c2nc(C)nc3c2CCN(Cc2cncs2)CC3)cc1
4.4% | O=C(c1ccc(F)cn1)N1CC(F)(F)C[C@H]1c1nc(C2CC2)no1
-10.4%[70.6 µM] | O=C(Cc1ccccc1)Nc1ccc([C@@H](O)[C@H]2COCC(=O)N2Cc2ccncc2)cc1
7.3% | CN(C)c1nc(-c2ccncc2)nc2c1CCN(C(=O)Cc1n[nH]c(=O)[nH]1)C2
12.5%[70.6 µM] | O=C1Nc2ccccc2CC12CCN(Cc1cccs1)C2 (stereo unspecified)
3.7% | CCN1CCN(CCNC(=O)c2cc(-c3ccc(C)cc3)cn2C)CC1
-2.8% | Cc1nc(CN2CCN(c3cc(C4CC(O)C4)ncn3)CC2)cs1 (stereo unspecified)
1.6% | CCC(=O)NCC12CCCC=C1NC(=O)CC2 (stereo unspecified)
1.9%[70.6 µM] | COc1ccc(-c2ccc3ncn(C4CC4)c(=O)c3n2)cn1
0.0% | O=C1NC2(CN(C(=O)c3ccc(C(F)(F)F)cc3)C2)Oc2ccccc21
8.2% | O=C(O)CC1(CC(=O)N[C@H]2CO[C@H]3[C@@H]2OC[C@@H]3n2nnnc2Oc2ccccc2)CCCC1
-3.3% | COC(=O)[C@@H](Cc1cccnc1)NC(=O)[C@H]1CN(C(=O)Nc2ccccc2)CCN1S(=O)(=O)c1ccccc1
3.5% | CN(C)C(=O)C1CN(C(=O)Nc2ccc(F)c(Cl)c2)CC12CCOCC2 (stereo unspecified)
2.4% | Cc1noc(-c2cn(C3CCN(C(=O)c4ccccc4)CC3)nn2)n1
4.5% | Cc1cc(C)nc(Cn2nc(CC3CCNCC3)n(-c3ccccc3)c2=O)n1
-0.3% | COc1ccc(-c2cc(N3CCCN(C(=O)c4ccc(C)c(C)c4)CC3)n[nH]2)cc1
